HIV Env fusion = inhibitors of HIV Env-mediated cell fusion | AID 651610 | HeLa-JRFL Env/CEM21 cell fusion, luciferase | 360,000 tested, 1.1% active | inhibition, % at 12.3 µM;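 active = mean replicate inhibition score of at least 50 and every replicate individually at or above 50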;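 also: 0% = plate neutral controls and 100% = maraviroc near 300 nM; one replicate is shown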
eIF4H inh = inhibitors of RNA binding by human eIF4H; Q15056; inhibition, % at 35 µM; eIF4H fluorescence polarization binding assay; AID 2012; 290,000 tested, 0.94% active;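 active = 50% or more with normal probe brightness, or confirmed in later tests; about a fifth of its hits are not listed in these tables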;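 also: calls also rest on retests at 20 µM and on dose response follow-up; 0% = protein and probe with vehicle and 100% = probe without protein; strong numbers were not always called active; many hits fall short of the cut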
Rce1 inhib = blocks yeast Ras-converting enzyme | yeast membranes, quenched prenylated peptide cleavage fluorescence | calls only | AID 2563 | 290,000 tested, 0.27% active;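 active = fall in fluorescence gain of 50% or more versus controls, with final raw signal at or below 3038400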;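 also: plate controls were neutral control wells for no effect and wells lacking membranes for full effect; tested at 10 µM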
MT1-MMP act inh = inhibitors of human MT1-MMP activation. P50281. HT1080 RFP-PRO-GFP cells, GFP/RFP ratio fluorescence, overnight; percent of plate control window, DMSO zero. GFP/RFP ratio change, % at 20 µM. 360,000 tested, 0.061% active;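 active = GFP/RFP ratio change of at least 30% with cell ATP level not reduced by more than half and red fluorescence within 50% of control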; also: strong numbers were not always called active
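Material – HT1080 RFP-PRO-GFP cells · Control set – DMSO wells and RFP-L50D-GFP cells · Incubation – overnight cell settling, then overnight compound exposure, 37 °C, 5% CO2 · Compound dosing – single-point 20 µM compound, 1% DMSO · Read-out – GFP/RFP fluorescence ratio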
CSC inhib = blocks cancer stem cells | cancer stem cell-like cells viability, luminescence | inhibition, % at 7.5 µM | 300,000 tested, 1.1% active | AID 2717;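 active = mean at 75% or more and at least half the replicates too; tested in HMLE shEcad cells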;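 also: 0% = median of negative and 100% = median of positive control wells; the first replicate is given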
PABP polyA inh = blocks human PABP binding to poly(A) RNA; P11940; fluorescence polarization; inhibition, % at 35 µM; 290,000 tested, 1% active; AID 2014;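 active = 50% or more with normal probe brightness, or confirmed in later tests; about a fifth of its hits are not listed in these tables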;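 also: calls also rest on retests at 20 µM and on dose response follow-up; controls were probe without protein and protein plus probe with vehicle; some compounds called inactive have numbers as strong as hits; many hits fall short of the cut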
Target sequence (P11940 whole entry, looked up): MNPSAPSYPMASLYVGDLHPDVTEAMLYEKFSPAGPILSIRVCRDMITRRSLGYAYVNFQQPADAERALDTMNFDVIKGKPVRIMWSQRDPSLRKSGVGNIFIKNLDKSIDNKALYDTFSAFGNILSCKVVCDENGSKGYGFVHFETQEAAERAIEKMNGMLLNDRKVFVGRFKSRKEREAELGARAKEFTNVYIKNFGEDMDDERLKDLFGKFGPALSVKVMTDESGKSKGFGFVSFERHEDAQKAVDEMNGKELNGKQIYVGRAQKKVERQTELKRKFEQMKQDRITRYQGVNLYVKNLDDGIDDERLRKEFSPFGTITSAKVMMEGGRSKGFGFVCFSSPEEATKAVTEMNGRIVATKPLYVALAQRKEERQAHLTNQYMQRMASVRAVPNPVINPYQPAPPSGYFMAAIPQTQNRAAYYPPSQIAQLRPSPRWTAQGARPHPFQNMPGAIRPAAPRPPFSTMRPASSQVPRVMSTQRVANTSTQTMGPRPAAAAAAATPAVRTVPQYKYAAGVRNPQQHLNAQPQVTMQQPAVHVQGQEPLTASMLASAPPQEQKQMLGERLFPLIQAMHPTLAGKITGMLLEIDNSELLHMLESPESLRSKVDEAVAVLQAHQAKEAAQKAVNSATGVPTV
UUG fidelity = modulators of start codon recognition fidelity in yeast; 350,000 tested, 0.13% active; activity score, % at 18.7 µM; S. cerevisiae UUG-firefly luciferase reporter, luminescence/redox ratio; AID 602363;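 active = replicate mean at a twofold rise or more, about +100% in these data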;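 also: firefly luciferase made from a UUG start codon reports start codon fidelity; reporter light over untreated wells divided by growth signal over untreated wells; some hits fall short of that in this replicate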
eIF4H inh retest = further read-out of eIF4H inh, marked with its call; inhibition, %; compound at 20 µM; confirmation average;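 mean of two retest wells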
PABP polyA inh retest = recorded beside PABP polyA inh, whose call it bears; inhibition, %; compound at 20 µM; confirmation repeats;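 mean of two retest wells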
MT1-MMP act inh RFP = second read-out of MT1-MMP act inh, no call of its own (marks repeat the call); RFP signal change, %; measured here: RFP expression control read;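 0 = vehicle wells; hits needed this value within 50% of zero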
Active calls of the source: *; i = inactive; . = no result given; + = active, no number; & = joins results of further samples. Not all compounds are listed (hit frequency here may not be typical).

SMILES	HIV Env fusion	eIF4H inh	Rce1 inhib	MT1-MMP act inh	MT1-MMP act inh RFP	CSC inhib	PABP polyA inh	UUG fidelity	others
Cc1cccc(NC(=O)CNC(=O)c2cccc(-n3cccc3)c2)c1C	26.6	.	i	1.0	0.2	1.2	.	-7.2
O=C(Nc1ccc(F)c(Cl)c1)c1cc(C2CCCCN2C(=O)c2ccc(Cl)cc2)on1 (configuration not stated)	14.4	.	.	-3.1	-9.3	.	.	0.7
O=c1c2ccccc2nc2oc3ccccc3n12	-93.4	0.2	i	-1.4	4.9	-9.5	11.6	-19.4
COc1ccc(CNC(=O)Cn2c(=O)n(CC(=O)N3CCCCC3)c(=O)c3sccc32)cc1	-4.2	-2.0	i	-3.8	0.6	8.9	-9.9	-14.5
O=C(CSc1ncn[nH]1)c1cc2ccccc2o1	-25.5	16.8	.	-13.9	7.9	-11.1	84.6	.	eIF4H inh retest=32.8;PABP polyA inh retest=47.9
CC(=O)N1CCN(C(=O)COc2ccc3oc4c(c3c2)CCCC4)CC1	-7.7	.	i	1.6	-1.9	-13.2	.	3.0
O=C(O)Cn1c(COc2ccc(Cl)cc2)nc2ccccc21	-2.7	-5.4	i	-0.9	5.1	-13.4	-8.4	-20.3
Cc1c(NS(=O)(=O)N2CCCC2)c(=O)n(-c2ccccc2)n1C	-17.9	1.1	i	-2.3	0.8	-6.5	0.2	-12.8
N#C/C(=C/c1ccc(Sc2nc3ccccc3[nH]2)o1)c1cccc(Br)c1	.	-12.4	i	-22.7	-35.7	60.0	-6.4	-25.9
CCOC(=O)C1(C)CCCN(C(=O)c2cccnc2SC)C1 (configuration not stated)	-2.8	.	.	-2.8	-2.8	.	.	-14.4
Cc1ccc(Cn2ccc(NC(=O)c3cc(-c4ccc5c(c4)OCO5)on3)n2)cc1	.	-11.4	i	2.0	-0.5	.	-2.6	.
CC(=O)Nc1ccc(NC(=O)Cc2ccc(F)cc2)cc1	.	4.7	i	.	.	9.7	-7.2	.
CCN(CC)S(=O)(=O)c1ccc(N2CCOCC2)c(NC(=O)c2ccc(F)cc2)c1	24.5	0.7	i	2.9	4.6	7.1	-2.4	.
COc1ccc(C)cc1NC(=S)N1CCOCC1	10.6	4.3	i	-1.2	1.2	-18.9	9.2	-15.5
COC(=O)c1cccc(S(=O)(=O)N2CCC(c3nc4ccccc4o3)CC2)c1	.	2.7	i	8.0	0.7	16.2	40.0	-13.9
COc1ccc(/C=N/n2cnnc2SCc2ccccc2)cc1	.	5.2	i	0.0	2.2	-8.2	-0.1	-6.6
CCOc1ccc(N=Nc2c(C)noc2C)cc1	11.1	-3.8	i	-3.0	0.6	0.2	14.5	-21.6
CC1(C)CC(=O)C=C(NCC(O)c2ccccc2)C1 (configuration not stated)	-0.2	-0.9	i	2.1	4.8	2.8	-3.7	-6.4
CC1=C(C(=O)OCC(C)C)C(c2ccc(F)cc2)NC(=O)N1 (configuration not stated)	-16.7	-7.6	i	-2.5	-3.7	-5.2	-3.2	-11.5
CCn1nc(NS(=O)(=O)c2ccc(C)cc2)c2cc3ccccc3nc21	12.1	-13.3	i	-0.5	-0.7	1.8	9.6	-3.3
CCN(CC)c1ccc(NC(=O)c2cnn(CC)c2)cc1	.	6.2	i	7.6	1.1	14.5	-5.4	.
CC1=CCC(C(C)(C)NC(=O)c2ccccc2)C/C1=N\O (configuration not stated)	-51.2	.	i	-3.8	-5.3	-6.0	.	-13.9
Cc1ccc(NC(=O)N2CCCCC2)cc1NC(=O)N1CCCCC1	-0.8	-2.6	i	-1.9	1.4	-7.6	0.6	-20.2
O=S(=O)(NCCNS(=O)(=O)c1ccccc1)c1ccccc1	-55.7	-5.9	i	-1.4	-0.1	-11.4	5.6	2.1
Cc1ccc(NC(=O)N2CCC(C(=O)NCC(C)C)CC2)cc1	0.7	-4.4	i	-0.4	4.5	-4.2	35.5	-18.4
CCOC(=O)c1c(C)c(C(=O)NCCc2ccc(S(N)(=O)=O)cc2)c(C)n1CC	20.7	-1.0	i	-1.5	0.6	-13.7	-1.1	-12.6
CCn1cc(C(=O)NCCO)c(=O)c2cc(F)c(N3CCN(C)CC3)cc21	21.2	-6.5	+	1.2	1.9	-12.4	6.8	-5.4
CCN(CC)CCNC(=O)CCCCn1c(=S)[nH]c2c([nH]c3ccc(OC)cc32)c1=O	-16.2	4.9	i	.	.	.	-0.5	-13.5
COc1cc(/C=C2/SC(=S)N(CCC(=O)Nc3ccc(C(=O)O)cc3)C2=O)cc(OC)c1OC	-17.0	0.3	i	25.4	9.7	0.1	4.3	-16.6
CCS(=O)(=O)N1CCC(C(=O)NCc2cccs2)CC1	-35.4	8.8	.	1.5	-0.8	16.8	0.5	-16.2
COc1cccc(-c2c(C(=O)N/N=C(\C)c3cccs3)nnn2-c2nonc2N)c1	14.6	-8.6	i	-10.6	-7.4	2.6	6.5	-21.9
CCCn1c(C)cc(C(=O)CN2C(=O)c3ccccc3C2=O)c1C	-10.1	.	.	-1.9	-0.5	-17.8	.	.
O=C(CSCc1cccc(F)c1)NCc1ccccc1	-7.6	4.1	i	-1.6	-1.0	-24.1	3.7	.
CCC(CC)=N/N=C/c1c(O)n(CC)c2cc(C3=NNC(=O)CC3)ccc12	.	6.8	i	-0.5	4.9	-9.2	16.0	14.0
Cc1cc(=O)oc2c(C)c(OCC(=O)NCC3CCC(C(=O)O)CC3)ccc12 (configuration not stated)	.	-10.2	i	1.6	-1.6	4.5	-3.7	5.9
CC(=O)c1cccc(N(CC(=O)Nc2ccc(F)cc2)S(C)(=O)=O)c1	-25.9	-7.1	i	-0.7	3.6	10.2	-4.9	.
CCNC(=O)C1(C)CCCN(C(=O)c2ccc3ccccc3n2)C1 (configuration not stated)	3.3	.	.	2.5	6.0	.	.	-2.1
OC(COc1ccccc1)CN1CCCCCC1 (configuration not stated)	4.8	1.2	i	-0.3	1.0	-10.8	4.9	.
COc1ccc(-c2noc(CN(C)C(=O)CCN3C(=O)[C@H]4CC=CC[C@H]4C3=O)n2)cc1	-2.2	-7.2	i	2.0	-3.7	5.1	-2.2	-3.5
Cc1cccc(CSCC(=O)NCc2ccc(S(N)(=O)=O)cc2)c1	-5.0	-15.5	i	1.7	3.0	-8.9	-8.8	-4.3
Cc1nc(NC(=O)c2ccco2)sc1C(=O)Nc1ccc(Br)cc1	.	1.8	i	2.5	-10.7	.	1.8	-16.3
Cc1ccc(-c2csc(NC(=O)CCNC(=O)c3ccccc3Cl)n2)cc1	7.7	6.1	i	-2.4	-12.2	1.7	1.9	.
O=[N+]([O-])c1cccc(Cl)c1NCCNS(=O)(=O)c1ccccc1	-30.4	1.7	i	-1.6	0.1	17.4	-7.8	-14.5
Cc1ccc(C)c(NC(=O)CSc2nc(C)cc(C)c2C#N)c1	.	1.5	i	4.9	4.7	-1.0	-0.5	-6.9
CCOc1ccc(NC(=O)c2sc3nc(N4CCOCC4)c4c(c3c2N)CCCC4)cc1	-13.1	-6.8	i	6.2	1.6	-15.6	8.7	.
COC(=O)c1ccccc1SC1CC(=O)N(c2cccc(C)c2)C1=O (configuration not stated)	2.8	-2.0	i	-1.4	5.6	-4.6	11.0	.
CCOC(=O)C1=C(C)NC(=O)/C1=C\N(C)C	9.5	59.5	i	-2.1	2.7	-9.4	8.2	.	eIF4H inh retest=26.0;PABP polyA inh retest=22.4
COc1ccccc1C(=O)N/C(=C\c1ccc(Br)cc1)C(=O)NCCO	-332.1	-2.4	i	4.9	2.4	-0.1	-2.5	0.5
N#CC1(NC(=O)COC(=O)Cn2[nH]c(=O)c3ccccc3c2=O)CCCCC1	1.2	.	i	0.1	-0.4	.	.	-3.4
Cc1cccc2cc3ccccc3nc12	0.1	.	i	7.5	6.6	-9.8	.	.
CCCc1nnc(NC(=O)CCC(=O)N2CCN(c3ccccn3)CC2)s1	16.3	9.9	i	3.2	0.0	-12.7	-3.5	-15.5
COc1ccc(CCNC(=O)CC2SC(=NCCC(C)C)NC2=O)cc1OC (configuration not stated)	-28.9	-9.4	i	3.7	5.3	-4.2	-6.9	-16.8
Cc1ccc(S(=O)(=O)Cn2nnnc2C(CC(C)C)N2CCN(C(=O)c3ccco3)CC2)cc1 (configuration not stated)	-24.6	3.4	i	-7.6	-0.7	1.9	-4.4	11.0
CCN1CCc2c(OCC(=O)Nc3cccc(C)c3)cccc2C1=O	-3.8	-2.9	i	2.8	-4.2	8.2	11.1	.
Cc1ccc(NC(=O)CSc2nn(-c3ccc(Cl)cc3)c(=S)s2)cc1S(=O)(=O)N(C)C	82.7*	-6.8	i	-5.7	-26.2	37.4	11.6	-6.7
O=C(c1ccc(Cn2ccc([N+](=O)[O-])n2)cc1)N1CCN(Cc2ccccc2)CC1	4.9	0.6	i	8.9	-9.7	-15.8	-5.1	.
CC(C)Nc1nc(NCCOc2ccccc2Cl)c2sc(-c3ccccc3)cc2n1	-20.5	.	.	-2.5	-18.7	.	.	-12.7
Cc1ccc(NC(=O)C2(c3ccccc3)CCOCC2)cc1	7.3	-8.6	i	-1.8	-3.1	-9.6	-7.2	.
CCOC(=O)C1=C(C)NC2=C(C(=O)CCC2)C1c1cc(OC)ccc1OC (configuration not stated)	.	11.3	i	7.2	4.5	11.4	9.4	-37.9
Cc1noc(C)c1NC(=O)N(C)C[C@@H]1Oc2ncc(Br)cc2C(=O)N([C@H](C)CO)C[C@@H]1C	-25.6	.	.	-2.9	3.8	.	.	-0.2&-14.3

Retrieved by compound from the list above:
SMILES	HIV Env fusion	eIF4H inh	Rce1 inhib	MT1-MMP act inh	MT1-MMP act inh RFP	CSC inhib	PABP polyA inh	UUG fidelity	others
Cc1ccc(NC(=O)C2(c3ccccc3)CCOCC2)cc1	7.3	-8.6	i	-1.8	-3.1	-9.6	-7.2	.
CCCc1nnc(NC(=O)CCC(=O)N2CCN(c3ccccn3)CC2)s1	16.3	9.9	i	3.2	0.0	-12.7	-3.5	-15.5

(cont.)
SMILES	HIV Env fusion	eIF4H inh	Rce1 inhib	MT1-MMP act inh	MT1-MMP act inh RFP	CSC inhib	PABP polyA inh	UUG fidelity	others
Cc1ccc(NC(=O)C2CCN(C(=O)c3ccccc3C)CC2)nc1	0.5	.	i	-1.7	1.5	-15.5	.	-7.6
Cc1ccc(OCC(=O)N/N=C/c2c[nH]c3ccccc23)c([N+](=O)[O-])c1	-20.9	0.2	i	-0.9	-2.0	1.9	1.5	-3.5
CCCCN(CC)CCCNC(=O)c1cc2cc3ccc(C)cc3nc2o1	2.3	2.0	i	4.6	3.8	5.1	-11.2	1.8
O=C(C[n+]1cc(-c2ccccc2)n2c1CCC2)OCc1ccccc1	10.4	4.3	i	4.5	1.1	-3.5	3.9	.
CCNC(=O)CN(c1ccc(CC)cc1)S(C)(=O)=O	-2.3	0.4	i	6.6	3.7	-9.4	12.8	-3.5
CC(CC(=O)Nc1ccc(F)cc1)S(=O)(=O)c1ccc2c(c1)NC(=O)CO2 (configuration not stated)	2.0	-5.0	i	3.7	0.9	8.2	-5.8	-9.5
O=C(COC(=O)c1c(Cl)cccc1Cl)NC1CCCCC1	-6.3	-0.7	.	0.2	-1.3	-1.6	-4.4	.
CC1=Nc2cc(C(=O)NCc3ccco3)ccc2Sc2ccc(C)cc21	.	8.5	i	4.5	-7.0	.	-8.7	-0.9
CCOc1ccc(S(=O)(=O)N2CCCCC2)c(C)c1C	20.7	-2.9	i	0.4	-0.7	.	-5.4	.
O=C(CN1CCN(c2ccccc2O)CC1)Nc1ccnn1C1CCCC1	21.4	.	.	7.3	-19.4	.	.	-1.9
CS(=O)(=O)N(CCc1ccccc1)CC(=O)NCc1ccc(Cl)cc1	15.0	-7.5	i	-1.4	-1.6	-5.3	-1.5	.
